# FEN1 inhibitor – inhibitors of human flap endonuclease 1. 390,000 compounds, 0.35% hits. Recombinant FEN1 flap cleavage, fluorescence, 15 min. Potency, µM (top dose mostly 114 µM), inactives show at the top dose activity change, negative = inhibition, usual class: inhibitors. AID 588795. P39748; also: nearly all actives have a fitted effect of over 65% in size
# Target sequence (P39748 whole entry, looked up): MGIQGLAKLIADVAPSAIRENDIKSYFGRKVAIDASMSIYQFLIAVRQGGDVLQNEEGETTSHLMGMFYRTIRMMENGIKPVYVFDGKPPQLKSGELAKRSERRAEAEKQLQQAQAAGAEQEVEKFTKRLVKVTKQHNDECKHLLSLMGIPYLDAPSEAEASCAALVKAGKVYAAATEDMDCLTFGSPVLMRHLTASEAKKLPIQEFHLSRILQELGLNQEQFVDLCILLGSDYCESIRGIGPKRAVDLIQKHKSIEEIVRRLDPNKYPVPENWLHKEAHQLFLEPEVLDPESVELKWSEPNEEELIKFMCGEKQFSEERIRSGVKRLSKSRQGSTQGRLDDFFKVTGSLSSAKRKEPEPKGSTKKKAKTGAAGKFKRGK
#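 Recombinant FEN1 (10 nM) was preincubated with pin-transferred compounds for 15 min at room temperature, then flap DNA substrate (50 nM final) was added. Plates were read at 0 and 15 min, and normalized concentration–response data were fitted to a four-parameter Hill equation.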
# TDP1 block – TDP1 (human) enzyme inhibition. 350,000 compounds, 0.28% hits. AID 485290. Potency, µM (doses to about 130 µM), for inactives: at the highest dose activity change, negative = inhibition, usual class: inhibitors. Q9NUW8. recombinant TDP1, AlphaScreen DNA substrate cleavage; also: nearly all actives have a fitted effect of over 40% in size
# Target sequence (Q9NUW8 whole entry, looked up): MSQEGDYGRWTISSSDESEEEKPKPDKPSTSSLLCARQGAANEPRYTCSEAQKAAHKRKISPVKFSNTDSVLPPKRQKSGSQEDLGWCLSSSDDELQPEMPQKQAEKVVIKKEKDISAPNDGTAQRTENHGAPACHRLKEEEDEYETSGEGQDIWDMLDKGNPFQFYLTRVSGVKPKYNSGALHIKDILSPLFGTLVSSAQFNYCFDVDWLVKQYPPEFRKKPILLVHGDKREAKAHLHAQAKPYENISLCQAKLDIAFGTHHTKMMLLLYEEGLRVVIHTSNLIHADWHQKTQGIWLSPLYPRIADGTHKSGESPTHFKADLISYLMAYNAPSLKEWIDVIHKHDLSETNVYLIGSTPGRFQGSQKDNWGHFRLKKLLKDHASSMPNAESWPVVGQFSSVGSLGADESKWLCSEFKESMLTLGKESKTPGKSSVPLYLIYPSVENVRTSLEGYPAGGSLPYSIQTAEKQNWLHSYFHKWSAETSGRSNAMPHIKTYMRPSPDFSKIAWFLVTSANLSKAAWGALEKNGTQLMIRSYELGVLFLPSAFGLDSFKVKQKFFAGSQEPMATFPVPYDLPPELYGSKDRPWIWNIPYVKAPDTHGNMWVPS
#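 AlphaScreen read-out: signal falls as enzyme removes the 3' tyrosine-FITC from a 5'-biotinylated DNA oligo (15 nM, 5 min, RT). Enzyme was E. coli-made recombinant Tdp1 at 1 nM, exposed to compound for 15 min beforehand; beads 10 ug/ml, 10 min.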
# Numbers without * were called inactive; · = not tested or not shown; & = joins results of further samples; [ ] = remark or other dose. Calls follow the shape of the dose curve; as a rule, active = well fitted inhibition curve with a large enough effect; inconclusive = small, poorly fitted or top-dose-only effect; inactive = no such curve, though single readings can be large or run the other way. % is scaled to controls: 0 for no effect and ±100 for the full control effect; potency is read from the fitted curve at half-maximal effect. These rows are one share of the data; most or all hits stand in other tables.
SMILES,FEN1 inhibitor,TDP1 block
O=C(N1CCN(c2ccccc2)CC1)C1(S(=O)(=O)c2ccc(Cl)cc2)CC1,-15%,-10%[0.0935 µM]
N#Cc1ccc(CC(C(=O)O)N2Cc3ccccc3C2=O)cc1 (centres undefined),16%,·
COc1ccc(NS(=O)(=O)c2cccc(C(=O)NCc3ccco3)c2)cc1,9%,·
COc1cc(NC(=O)NCC2CCN(Cc3ccc(C)cc3)CC2)cc(OC)c1OC,8%&-3%,2%
O=C(C1CCN(S(=O)(=O)c2ccccc2)CC1)N1CCCCC1,6%,·
COc1cccc(OCCCN2CCN(S(=O)(=O)c3ccc(NC(C)=O)cc3)CC2)c1,-7%,4%
COc1ccc(C(NC(=O)c2ccco2)c2ccc(OC)c(OC)c2)cc1 (centres undefined),3%,7%
CC(C)NC(=O)c1ccc2c(c1)N(Cc1ccccc1)C(=O)C(C)(C)O2,-1%,·
COc1ccc(CNc2ncnc3cc(OC)c(OC)cc23)cc1OC,-13%,·
O=C(NCc1ccco1)C1CCCN(S(=O)(=O)c2cnc[nH]2)C1 (centres undefined),-8%,0%
O=C(NC(=O)c1ccccc1O)c1ccc2c(c1)CCO2,-9%,·
COc1cccc(CNC(=O)C2CCN(S(=O)(=O)c3cccc4cccnc34)CC2)c1,-5%,0%
O=C(COC(=O)C1CC1)Nc1ncc(C(F)(F)F)cc1Cl,-2%,8%
C[C@]12C=CC(=O)C=C1CC[C@H]1[C@@H]3C[C@@H](O)[C@](O)(C(=O)CO)[C@@]3(C)C[C@H](O)[C@@]12F,-16%,-3%
COc1ccc(C(=O)Oc2ccc3c(c2)OCO3)cc1OC,-6%,-6%
COc1ccc(OC)c(C(C(=O)NCc2ccco2)N(C(=O)Cn2nnc3ccccc32)C(C)C)c1 (centres undefined),-2%,-5%
Cc1sc(NC(=O)c2ccco2)c(CN2CCCCC2)c1C,-19%,4%
COc1ccc(NC(=O)CSc2nnc3n2CCCCC3)cc1,-3%,5%
Cc1cc(=O)oc2cc(OC(C)C(=O)Nc3nccs3)ccc12 (centres undefined),0%,4%
CCCNc1cc(C)oc(=O)c1C(=O)CC,-10%,6%
COC(=O)c1ccccc1S(=O)(=O)N1CCC(C(=O)OC(C)C(=O)NC(N)=O)CC1 (centres undefined),14%,4%
CCCc1nnc(SCC(=O)Nc2cccc(Cl)c2Cl)o1,6%,·
O=c1oc(Nc2ccccc2F)nc2ccccc12,16%,3%
CC(=O)c1ccc(OCCCC(=O)N2CCN(S(=O)(=O)c3cccs3)CC2)cc1,-8%,6%
CCOC(=O)N1CCN(S(=O)(=O)c2ccc(C(=O)N(CCCN(C)C)c3nc4cc(OC)ccc4s3)cc2)CC1,1%,3%
C=C(C)CNC(=S)NNC(=O)c1cc(C)oc1C,0%,7%
Cc1noc(C(=O)Nc2ccccc2C(F)(F)F)c1Cl,-17%,-1%
CCC(=O)Nc1cc(NC(=O)CSc2nnc(C(C)C)n2CC)ccc1C,7%,1%
O=C(CNC(=O)c1ccco1)Nc1ccc(F)c(Cl)c1,6%,2%
CCCc1ccc2oc(C(=O)N3CCCC3)c(C)c2c1,-1%,·
Nc1c(C(=O)NCc2cccs2)nnn1CC(=O)Nc1cccc(Cl)c1,5%,2%
COc1ccccc1/C=C/c1ccc2cccc(O)c2n1,1%,·
CCCCCCn1c(-c2cccs2)n[nH]c1=S,9%,3%
CCCC(=O)c1cn(CC(=O)OC)c2ccccc12,3%,3%
COc1ccccc1N1CCN(C(=O)c2cc3ccccc3[nH]2)CC1,-16%,7%
CCOc1ccc(C(=O)NC2CCN(C(=O)Nc3ccccc3OC)CC2)cc1,-6%,0%
O=C(NCCS(=O)(=O)NCc1ccccc1Cl)c1ccc2c(c1)OCO2,-4%,0%
CCOc1ccccc1CN1CCN(Cc2csc(C(C)=O)c2)CC1CCO (centres undefined),-3%,·
COc1ccccc1N=c1oc2c(OC)cccc2cc1C(=O)NCc1ccco1,-14%,-2%
CSCCC(NC(=O)c1ccccc1Br)C(=O)NCC(c1ccco1)N1CCCCC1 (centres undefined),0%,0%
O=C(Nc1cccc(Cl)c1)Nc1ccccc1-n1ccnc1,5%,·
CN(C)n1cccc1/C=C(\C#N)S(=O)(=O)c1ccc(Cl)cc1,-17%,8%
Cc1ccc(NC(=O)CSc2nnc([C@@H]3CCCN3C(=O)OC(C)(C)C)o2)c(C)c1,0%,4%
O=C(Nc1ccc(F)cc1)c1nsc(Cl)c1Cl,2%,3%
COc1ccc(NC(=O)Nc2ccc3c(c2)N(C)C(=O)CS3)cc1OC,-24%,8%
COc1ccc(NC2CCCN(C(=O)C3=NN(C)C(=O)CC3)C2)cc1OC (centres undefined),21%,1%
O=C(O)C=C1C2CC3CC(C2)CC1C3,9%,4%
Cc1c(C(=O)NC(C)c2ccc(-n3ccnc3)cc2)cccc1[N+](=O)[O-] (centres undefined),4%,5%
CCn1c(/N=C/c2ccccc2O)nc2ccccc21,-5%,3%
COc1ccccc1NC(=O)CCN1C(=O)/C(=C/c2cc(OC)c(OC)c(OC)c2)SC1=S,17%,·
COc1ccc(S(=O)(=O)N2CCCC2CNC(=O)C(=O)NC2CCCCCC2)cc1 (centres undefined),3%,0%
CCOC(CCn1ccc(O)c(Cc2ccc(Cl)cc2)c1=O)OCC,2%,·
CCC(=O)N1CCc2cc(S(=O)(=O)CCC(=O)NCc3ccc(OC)cc3)ccc21,-3%&18%,-2%&0%
COc1cc(NC2=Nc3cccc4cccc2c34)cc(OC)c1OC,-20%,-4%
COc1ccc(CCNC(=O)C2CCCN(C(=O)c3ccc(Cl)cc3)C2)cc1 (centres undefined),1%,1%
Cc1ccc2nc(-c3ccc(NC(=O)COC(=O)c4cncc(Br)c4)cc3)sc2c1,-6%,8%
COc1ccc(CCNC(=O)c2cnn3ccccc23)c(OC)c1OC,20%,3%
CCN1CCN(Cc2nc3cc(NC(=O)COc4ccc([N+](=O)[O-])cc4)ccc3n2C)CC1,-18%,2%
CN(C)S(=O)(=O)c1ccc(N=Cc2c(C(F)(F)F)[nH][nH]c2=O)cc1,1%,4%
Cc1cc(N2CCN(c3ccccc3)CC2)nc(NCc2ccccc2)n1,-3%,2%

# The results go on.
SMILES,FEN1 inhibitor,TDP1 block
Cc1cc(Nc2c(C)n(C)n(-c3ccccc3)c2=O)n2c(nc3cc(F)c(F)cc32)c1C#N,-6%,0%
COc1cc(C(=O)OCn2nnc3ccccc3c2=O)cc(OC)c1OC,-24%,0%
COC(=O)C1C(=O)C=C(Nc2ccc(F)cc2)CC1c1ccc(OC)cc1 (centres undefined),1%,0%
O=C(c1ccccc1-c1ccccc1)N1CCCC1,-6%,-5%
O=C1Nc2ccccc2S/C1=C/Nc1cccc(Cl)c1,4%,5%
Cc1ccc(S(=O)(=O)C2(C(=O)Nc3cccnc3)CC2)cc1,-13%,3%
N#C/C(=C\N1CCOCC1)S(=O)(=O)c1ccc(Cl)cc1,-2%,·
CCCOc1ccc(/C=N/NC(=O)C2CCCN2S(=O)(=O)c2ccc(Cl)cc2)cc1 (centres undefined),-2%,10%
Cc1ccc(N2CC(C(=O)Nc3nnc(SCC(N)=O)s3)CC2=O)cc1C (centres undefined),0%,3%
O=C(Cc1ccccc1[N+](=O)[O-])NNC(=O)Nc1ccc2c(c1)OCO2,-1%,5%
Cc1cc(=O)[nH]c(-c2ccccc2)n1,5%,-2%
CN(C)CC[C@@H](c1ccc(Cl)cc1)c1ccccn1,20%,10%[56.1 µM]
CCN(CCn1cccn1)C(=O)CCc1nnc(C2CCCCC2)o1,0%,6%
O=C1CC(C(=O)N2CCN(c3ccc(F)cc3)CC2)CN1CCc1ccccc1 (centres undefined),8%,5%
Cc1ccc(C(=O)C2=C(O)C(=O)N(Cc3ccco3)C2c2ccc(N(C)C)cc2)o1 (centres undefined),2%,3%

# Rewritten as tab-separated lines: entries from further up
canonical_smiles	FEN1 inhibitor	TDP1 block
COc1ccc(CCNC(=O)c2cnn3ccccc23)c(OC)c1OC	20%	3%
CCN1CCN(Cc2nc3cc(NC(=O)COc4ccc([N+](=O)[O-])cc4)ccc3n2C)CC1	-18%	2%
CN(C)S(=O)(=O)c1ccc(N=Cc2c(C(F)(F)F)[nH][nH]c2=O)cc1	1%	4%
Cc1cc(N2CCN(c3ccccc3)CC2)nc(NCc2ccccc2)n1	-3%	2%
Cc1cc(Nc2c(C)n(C)n(-c3ccccc3)c2=O)n2c(nc3cc(F)c(F)cc32)c1C#N	-6%	0%
COc1cc(C(=O)OCn2nnc3ccccc3c2=O)cc(OC)c1OC	-24%	0%
COC(=O)C1C(=O)C=C(Nc2ccc(F)cc2)CC1c1ccc(OC)cc1 (centres undefined)	1%	0%
O=C(c1ccccc1-c1ccccc1)N1CCCC1	-6%	-5%
O=C1Nc2ccccc2S/C1=C/Nc1cccc(Cl)c1	4%	5%
Cc1ccc(S(=O)(=O)C2(C(=O)Nc3cccnc3)CC2)cc1	-13%	3%
N#C/C(=C\N1CCOCC1)S(=O)(=O)c1ccc(Cl)cc1	-2%	·
CCCOc1ccc(/C=N/NC(=O)C2CCCN2S(=O)(=O)c2ccc(Cl)cc2)cc1 (centres undefined)	-2%	10%
Cc1ccc(N2CC(C(=O)Nc3nnc(SCC(N)=O)s3)CC2=O)cc1C (centres undefined)	0%	3%
O=C(Cc1ccccc1[N+](=O)[O-])NNC(=O)Nc1ccc2c(c1)OCO2	-1%	5%
Cc1cc(=O)[nH]c(-c2ccccc2)n1	5%	-2%
CN(C)CC[C@@H](c1ccc(Cl)cc1)c1ccccn1	20%	10%[56.1 µM]
CCN(CCn1cccn1)C(=O)CCc1nnc(C2CCCCC2)o1	0%	6%
O=C1CC(C(=O)N2CCN(c3ccc(F)cc3)CC2)CN1CCc1ccccc1 (centres undefined)	8%	5%
Cc1ccc(C(=O)C2=C(O)C(=O)N(Cc3ccco3)C2c2ccc(N(C)C)cc2)o1 (centres undefined)	2%	3%

# More compounds
SMILES,FEN1 inhibitor,TDP1 block
CC(C)Cn1c(N)c(C(=O)COC(=O)c2cc(F)cc(F)c2)c(=O)n(C)c1=O,-11%,-1%
NC(=O)Nc1cccc2ccccc12,5%,5%
O=C(O)C1CCC(=O)N(C2CCCCC2)C1c1ccccc1Cl (centres undefined),-5%,6%
CCO/C=N/c1c(C#N)c2c(c(=S)n1C)COC(C)(C)C2,5%,3%
CCCn1c(SC(C)C(=O)NCC2CCCO2)nc2sc(CC)cc2c1=O (centres undefined),-6%,0%
COc1ccc2c(c1)-c1nc(N)sc1CC2,8%,2%
CC(=O)Nc1ccc(SCC(=O)OCC(=O)NC(=O)NCCC(C)C)cc1,-14%,5%
CC1(C)C(=O)Nc2ccccc2N1C(=O)COC(=O)C1CCCCC1,-13%,5%
COc1ccc(CCNC(=O)CCNC(=O)c2ccc(Br)cc2)cc1OC,-12%,3%
COc1ccc(NC2=NC3(CCCCC3)N=C(N)N2)cc1,1%,2%
O=C(CNc1cccc(S(=O)(=O)N2CCOCC2)c1)Nc1cccc(Br)c1,-1%,·
Cc1[nH]nc2c1C1(CCC3(CC1)OCCO3)C(C#N)=C(N)O2,8%,0%
C=CCN1C=C2C(=O)C(C)(OC(=O)C3CCCC3)C(=O)C=C2C=C1c1ccsc1 (centres undefined),-2%,11%[12.3 µM]
Cc1ccc(OCCNC(=O)CCNS(=O)(=O)c2ccc(Br)cc2)cc1,1%,·
COC(=O)NC1c2ccccc2Oc2ccc(C)cc21 (centres undefined),21%,·
NC(=O)CSc1nnc(-c2ccc(S(=O)(=O)N3CCCCC3)cc2)n1-c1ccccc1,-12%,0%
O=C(O)CSc1nnc(COc2ccccc2)n1-c1ccccc1,-3%,·
CCOP(=O)(OCC)/C(=N/OC(=O)c1ccccc1C)C(N)=O,-2%,0%
CC1(C)Cc2c(cnn2-c2ccc(F)cc2)C(NC(=O)CCc2ccncc2)C1 (centres undefined),21%,·
CCc1cc(Cn2nc(-c3ccccc3)cc2C(=O)O)on1,-1%,0%
N#Cc1ccc(Sc2nc3ccccc3[nH]2)cc1C#N,1%,4%
Cn1cc(S(=O)(=O)N2CCOCC2)cc1C(=O)NCc1ccccc1Cl,24%,·
CCOC(=O)C1=C(C)N(c2ccccc2)C(=O)/C1=C\c1cccs1,-12%,5%
COc1ccccc1C(C)N(C)Cc1nc(COc2ccccc2)no1 (centres undefined),-3%,3%
O=C(O)CCN1/C(=C/C=Nc2ccccc2)Oc2ccccc21,1%,-6%
CCCCOc1ccc(S(=O)(=O)NNC(=O)c2cc3ccccc3o2)cc1,0%,2%
CC(C)(C)C(=O)NCCN1CCN(C(=O)C(C)(C)C)CC1,10%,4%[56.1 µM]
CCCCCCC1CC(CCC(=O)Nc2ccc([N+](=O)[O-])cc2)C(=O)O1 (centres undefined),8%,0%
Nc1c(Cl)cc(Cl)cc1C(=O)OCC(=O)NC1CC1,-6%,0%
Cc1ccc(C(=O)c2ccccc2C(=O)OCC(=O)Nc2cccc([N+](=O)[O-])c2)cc1,4%,6%
COc1ccc(S(=O)(=O)N2CCCC2C(=O)Nc2nnc(-c3cccnc3)s2)cc1 (centres undefined),-4%,2%
CC(C)(C)n1nc2c(c1NC(=O)c1ccc(S(=O)(=O)N3CCCC3)cc1)CSC2,-2%,3%
COc1ccc(N(CC(=O)NN=C2CCCCCCC2)S(=O)(=O)c2ccccc2)cc1Cl,-14%,4%
O=C(COc1ccc(Cl)cc1)NCc1nnc(SCC(=O)NCCc2ccccc2)o1,-7%,0%

# From PubChem
